# Sa ugtP lethal: compounds lethal to S. aureus RN4220 ugtP deletion mutant. 330,000 compounds, 0.54% hits. AID 1259309. OD600 growth, 16 h; some inactives read as strong as hits. growth inhibition, % (test concentration not listed);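 active = z-score under -3 and OD600 up to 0.15 on both plates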;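 note: plate controls were untreated wells for no effect and antibiotic for full effect; wells of about 80 µL received 100 nL stock; the first replicate is given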
# BJeLR lethal: BJeLR cell viability loss | BJeLR (HRASV12) viability, CellTiter-Glo ATP luminescence, 48 h; reference of the scale not given here | inhibition, % (concentration not given with the values) | 300,000 compounds, 0.17% hits | AID 1554;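 active = replicate mean above 50%; inconclusive = above 50% but judged a plate artefact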;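 note: 50 nL library stock added to about 25 µL; numbers are from one replicate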
# RN4220 kill: kills Staphylococcus aureus RN4220 | S. aureus RN4220 growth, OD600, 16 h | inhibition, % (no concentration beside the values) | 330,000 compounds, 0.33% hits;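 active = z-score of -3 or lower and OD600 up to 0.18 on both plates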;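 note: plate controls were untreated cells for no effect and reference antibiotic for full effect; stock transfer was 100 nL into about 80 µL; one replicate is shown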
# Mtb hypoxia rep: inhibitors of hypoxia-regulated fluorescent reporter in Mycobacterium tuberculosis | M. tuberculosis hypoxia-regulated fluorescent reporter, fluorescence | fluorescence inhibition, % (no concentration beside the values) | 300,000 compounds, 0.1% hits;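 active = 35 to 45% if threefold the growth effect, above 45% if 1.5-fold the growth effect; inactive = the rest, general growth blockers included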;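 note: wells of about 50 µL received 100 nL stock; 0% = vehicle wells and 100% = reference inhibitor wells; whole bacteria with a GFP reporter of the hypoxia response; strong numbers were not always called active; many hits fall short of the cut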
# PrP UTR inh: inhibition of PrP 5' UTR reporter expression; cell-based PrP 5' UTR mRNA reporter, plate reader; inhibition, % (concentration not given with the values); 340,000 compounds, 0.35% hits;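 active = every replicate at 50% or more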;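 note: 0 = median of the neutral control wells; tested in H4 reporter cells; numbers are from one replicate; inactives centre near -14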
# Autofluor counter: flagged as autofluorescent in microsphere protease counterscreen | compound autofluorescence counterscreen, microsphere flow cytometry; active compounds read high | fluorescence intensity (concentration not given with the values) | AID 624483 | 360,000 compounds, 3.1% hits;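 active = at least 3 SD above the mean of all compounds, about 16000 in these data; inconclusive = too few beads counted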;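 note: 100 nL of 1 mM stock went into each well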
# Mtb hypoxia rep growth: second read-out of Mtb hypoxia rep, no call of its own (marks repeat the call); growth inhibition, %; measured here: M. tuberculosis growth (absorbance);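 0% = vehicle and 100% = reference antibiotic; read after six days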
# * hit, by the source's call; ? = inconclusive; . = not tested or not shown.
SMILES	Sa ugtP lethal	BJeLR lethal	RN4220 kill	Mtb hypoxia rep	Mtb hypoxia rep growth	PrP UTR inh	Autofluor counter
CC(C)(C)c1cc(C(=O)NCCN2CCCC2)cc(C(C)(C)C)c1	15	3	2.7	8	4	-10	2747
Cc1ccc(NC(=O)CCn2nc(C)cc2C)cc1	2	-4	3.1	3	4	0	9353
CC(=O)C1=NN(c2ccccc2)C2(S1)S/C(=C\c1ccccc1)C(=O)N2c1ccccc1 (stereo unspecified)	.	-2	.	.	.	-9	3172
COc1ccc(-c2nc(S(=O)(=O)c3ccccc3)c(N3CCOCC3)o2)cc1	4	-1	3.1	12	4	0	1938
O=C1CCC/C(=N/NC(=O)c2cc(NS(=O)(=O)c3cccs3)cc(NS(=O)(=O)c3cccs3)c2)C1	.	-2	.	.	.	-15	4718
CCCc1noc2c1C(=NO)CCC2	0	.	-3.3	0	8	.	.
COc1ccc(Cl)cc1NC(=O)CCn1c(=O)oc2ccccc21	.	-5	.	.	.	-15	5757
CCOC(=O)CN/C=C(\C#N)c1ccc(F)cc1	-12	-5	1.7	-2	2	-15	4237
Cc1ccc(SCC(=O)c2sc(-c3ccccc3)nc2C)cc1	55	-4	-2.1	.	.	-14	2080
CC1CCC(C(C)C)C(=O)/C1=C\c1ccc(NC(=O)CCC(=O)O)cc1 (stereo unspecified)	1	-3	11	13	0	-16	2415
Cc1nc([N+](=O)[O-])cn1C(C)C	10	5	2.5	3	-15	-14	5702
CCn1cc(C(=O)NCc2ccccn2)c(=O)c2cc(F)c(N3CCN(C)CC3)cc21	.	5	.	.	.	-4	3976
CCOC(=O)C1=C(C)N(Cc2ccc(C(=O)O)cc2)C(=O)NC1c1ccc([N+](=O)[O-])cc1 (stereo unspecified)	6	-2	7.0	0	3	-10	3725
CC(CN1CCN(C)CC1)OC(=O)c1ccc(Cl)cc1Cl (stereo unspecified)	6	5	1.3	4	-2	-5	16186*
NS(=O)(=O)c1ccc(NC(=S)NNC(=O)c2ccc(Br)o2)cc1	3	7	0.7	4	5	0	6586
CC(C)CNC(C(=O)Nc1ccc([N+](=O)[O-])cc1Br)c1ccccc1 (stereo unspecified)	-1	-1	1.6	7	2	-4	2067
COc1cc(OC)cc(-c2c(-c3cccs3)c3cc(-c4ccc5[nH]ccc5c4)ccc3n2C)c1	-13	.	-25	14	2	-3	4183
O=C1/C(=C\Nc2ccc(Cl)cc2)CCN1c1ncccn1	0	2	3.3	.	.	-20	3697
CCOC(=O)C1CCCN(c2c(C(=O)c3ccccc3)cnc3ccccc23)C1 (stereo unspecified)	69	.	1.8	-1	3	-8	1930
CN(C)c1cccc(-c2csc(N3CCC(C(N)=O)CC3)n2)c1	5	.	4.5	11	6	-28	3659
CN(CC(=O)Nc1ccc(OC(F)(F)F)cc1)C(=O)c1ccc(N2CCCC2=O)cc1	5	.	1.8	30*	54*	-19	4242
CC(C)C(=O)NNC(=O)CSc1ncnc2c1cnn2-c1ccccc1Cl	1	0	2.4	10	-1	-24	3794
O=C(COc1cccnc1[N+](=O)[O-])Nc1cccc(S(=O)(=O)N2CCOCC2)c1	7	5	1.4	11	2	-15	4359
CSc1ccccc1NC(=O)CSCc1ccccc1Br	12	-6	27	-3	8	-3	3218
CCc1ccccc1OCC(=O)Nc1ccc(F)c(S(=O)(=O)N2CCOCC2)c1	-4	.	0.9	2	9	-4	?
CC1CCC2(CC1)NC(=O)N(CC(=O)N1CC(C)CC(C)C1)C2=O (stereo unspecified)	0	.	-0.8	4	3	-36	4616
Cc1ccc(C2NC(=O)Cc3ccccc32)cc1 (stereo unspecified)	-9	0	2.8	0	-13	-44	3394
CC1CCCCC12NC(=O)N(CC(=O)Nc1ccc(S(=O)(=O)Nc3ncccn3)cc1)C2=O (stereo unspecified)	-4	.	-1.8	1	10	-10	6136
CN(CC(=O)Nc1ccc(Cl)c(Cl)c1)C(=O)CNC(=O)C1CCCCC1	-11	.	-5.8	-7	1	-33	3996
CCc1noc(C)c1C(=O)N(C)CC(=O)Nc1cccc(OC)c1	6	.	3.9	1	3	89*	5352
CS(=O)(=O)c1nc(S(=O)(=O)c2ccc(Cl)cc2)c(N2CCCCC2)s1	15	-6	2.1	-7	-8	-7	3729
COc1ccc(OC)c(C(=O)NC(CC(N)=O)c2ccc(NCCOc3ccccc3)c([N+](=O)[O-])c2)c1 (stereo unspecified)	-4	0	2.9	13	4	-15	3750
COc1ccc(COC(=O)c2ccc3c(=O)n4c(nc3c2)CCC4)cc1F	8	-1	3.4	7	9	.	.
Cc1ccc(S(=O)(=O)N2CCOCC2)cc1C(=O)Nc1cc(S(=O)(=O)N2CCCCC2)ccc1O	7	.	5.9	11	12	-8	4667
CNS(=O)(=O)c1ccc(C(=O)NCC(=O)NC(C)c2cccs2)cc1 (stereo unspecified)	-1	.	0.3	-7	8	3	4106
O=C(COC(=O)/C=C/c1ccco1)NCc1ccccc1Cl	12	8	5.9	-6	6	-10	4278
Cc1ccc(S(=O)(=O)N2CCC(C(=O)NCC3CCCCC3)CC2)cc1	6	-5	0.2	1	4	-23	3068
O=C(CNC(=O)c1n[nH]c2ccccc12)Nc1ccc(F)c(F)c1F	-5	.	-2.9	6	7	-14	8261
CNc1sc(C(=O)c2cccs2)c(N)c1-c1nc2ccccc2s1	3	1	-1.2	10	8	-100	2925
CC1CCCCN1C(=O)CSc1nnc(-c2ccccc2F)o1 (stereo unspecified)	8	-3	4.0	9	1	-54	3467
CC(=O)c1ccc(NC(=S)N2CCC(Cc3ccccc3)CC2)cc1	5	7	2.7	21	10	-10	4544
O=C(Nc1ccc(Br)cc1)Nc1ccccc1Cl	.	-8	.	.	.	-50	3533
Nc1nc(/C=C/c2ccc(F)cc2)nc(-c2ccccc2O)n1	-6	-15	4.3	8	3	-1	1814
Clc1ccc(-c2csc(NN=Cc3ccco3)n2)cc1	10	.	2.0	-4	8	.	.
O=C(COc1ccc(Cl)cc1)Nc1cccc(-c2ccc(N3CCOCC3)nn2)c1	-7	4	-0.5	3	0	-104	.
Fc1ccccc1-c1nnc2c3ccccc3nc(N3CCOCC3)n12	-12	8	4.1	12	6	-63	19272*
COC(=O)C1=Nc2ccccc2/C1=C\c1c(O)n(-c2ccc(Br)cc2)c(=O)[nH]c1=O	-2	.	4.9	17	4	-5	2498
CCCN1C2=C(C(=O)CC(C)(C)C2)C(c2ccc(F)cc2)C2=C1c1ccccc1C2=O (stereo unspecified)	-11	6	-3.2	3	11	-25	11164
COc1ccc(CCN2CCCn3c2nc2c3c(=O)n(CC(N)=O)c(=O)n2C)cc1OC	15	-3	4.0	6	6	-54	3310
COC(=O)c1cc2nc(-c3ccc(OC)cc3)cc(C(F)(F)F)n2n1	-3	.	6.0	.	.	-12	2554
CCC(CC)C(=O)Nc1nc(-c2ccc3c(c2)CCN3C(=O)C2CC2)c(C)s1	-8	6	3.9	-12	10	-12	2087
CCCCOc1ccc(/C(O)=C(\C#N)c2nc3ccccc3[nH]2)cc1	5	5	2.4	0	-3	-14	3997
CC(C)NCC(O)COCCOc1ccc(C(C)(C)C)cc1 (stereo unspecified)	12	2	3.8	7	11	8	2140
Cc1ccc(S(=O)(=O)Cc2ccc(C(=O)NCCCN3CCCC3=O)o2)cc1	-7	0	1.8	2	2	-37	20958*
CN(C(=O)NC(=O)C1=C(N2CCOCC2)/C(=C/c2ccccc2)CC1)S(C)(=O)=O	11	2	1.5	7	3	-18	12043
CCOC(=O)CSC1=C(C#N)C(c2ccc(Cl)cc2)C(C(=O)OC)C(=O)N1 (stereo unspecified)	19	-12	0.8	9	3	-7	6683
COc1ccccc1NC(=O)COc1ccc(CO)cc1Cl	-5	-6	6.3	.	.	-51	3530
CCN(CC)S(=O)(=O)c1ccc(N2CCOCC2)c(NC(=O)c2ccc(=O)[nH]c2)c1	-3	.	0.8	-1	-2	2	4035
Cc1ccnc(NC(=O)CCCOc2ccc(Cl)cc2C)c1	2	-5	0.0	-3	9	.	.
COc1ccc(S(=O)(=O)N(C)CC2Oc3c(NC(=O)Nc4c(C)noc4C)cccc3C(=O)N(C(C)CO)CC2C)cc1 (stereo unspecified)	11	.	7.7	1	3	.	.

# Full records from above.
# Shown for `CC(=O)C1=NN(c2ccccc2)C2(S1)S/C(=C\c1ccccc1)C(=O)N2c1ccccc1` (stereo unspecified) : Sa ugtP lethal = .; BJeLR lethal = -2; RN4220 kill = .; Mtb hypoxia rep = .; Mtb hypoxia rep growth = .; PrP UTR inh = -9; Autofluor counter = 3172
# Shown for `CCn1cc(C(=O)NCc2ccccn2)c(=O)c2cc(F)c(N3CCN(C)CC3)cc21` : Sa ugtP lethal = .; BJeLR lethal = 5; RN4220 kill = .; Mtb hypoxia rep = .; Mtb hypoxia rep growth = .; PrP UTR inh = -4; Autofluor counter = 3976

# (listing goes on)
SMILES	Sa ugtP lethal	BJeLR lethal	RN4220 kill	Mtb hypoxia rep	Mtb hypoxia rep growth	PrP UTR inh	Autofluor counter
CC(C)c1ccc(NS(=O)(=O)c2cn(C)c(=O)n(C)c2=O)cc1	-3	2	-3.0	1	1	-21	6115
COc1ccc(-c2cnc(OC(C)(C)C)nc2OC(C)(C)C)cc1OC	41	-19	1.6	4	14	-20	4232
CCc1nnc(NC(=O)[C@@H](NC(=O)c2cccc(C)c2)C(C)C)s1	4	-2	0.3	0	4	-18	2552
CSc1nnnc2ccccc12	5	.	4.3	7	8	4	3112
O=C(C1CCCCC1)N1CCC(c2nc3ccccc3[nH]2)CC1	11	3	3.4	9	12	-4	7753
O=C1C(=O)N(CCN2CCOCC2)C(c2cccc(Cl)c2)/C1=C(/O)c1ccc2c(c1)OCO2 (stereo unspecified)	2	-10	0.5	5	-2	-12	4232
Cc1ccc(S(=O)(=O)Nc2ccc3c(c2)nc(CN2CCCC2)n3C)cc1	4	-6	3.0	4	0	-1	3114
CC(OC(=O)c1ccc2c(=O)n3c(nc2c1)CCC3)C(=O)NC1CCCCC1C (stereo unspecified)	-3	15	-1.4	1	7	-7	5968
C/C(=N\OCC(=O)OCC(=O)NC(=O)c1ccc(OC(F)F)cc1)c1ccc2c(c1)OCO2	.	5	.	.	.	-13	5810
COc1cc(C2CC(=O)c3cnc(NC(C)=O)nc3C2)cc(OC)c1OC (stereo unspecified)	-8	-9	-14	15	2	-14	2471
COc1cccc(N=c2oc3ccccc3cc2-c2nc3ccccc3[nH]2)c1	-24	5	5.7	2	3	-36	?
COc1ccc(-c2nnn(CC(=O)N3CCN(c4ccccc4OC)CC3)n2)cc1OC	3	12	9.8	5	12	-20	4255
Cc1ccc(NCN2C(=O)C(=O)c3ccccc32)nc1	9	-5	5.9	10	11	-28	2472
C=CCc1cc(/C=C2/NC(=O)N(CC)C2=O)cc(OCC)c1OCc1ccc(C(=O)O)cc1	-3	3	20	-5	5	-12	1886
COc1cc(OC)c(NC(=O)CCNS(=O)(=O)c2ccc3c(c2)CC(C)N3C(C)=O)cc1Cl (stereo unspecified)	2	-8	1.4	-5	3	-12	5653
Cc1cc(/C=C(\C#N)C(=O)NC2CC2)c(C)[nH]1	-3	5	-2.7	18	15	-36	2437
C[n+]1c(/C=C/c2ccc(O)cc2)ccc2ccccc21	6	7	-2.3	-4	4	-28	3189
O=C(NCc1ccccc1)N1CCn2c(nc3ccccc32)C1	1	3	1.1	-1	-6	-18	19281*
CCCC(=O)Nc1cc(=O)n(C)c(=O)n1C	4	1	0.6	-1	-1	-17	6070
O=C(Nc1cccc(S(=O)(=O)N2CCOCC2)c1)c1cnccn1	4	-3	7.1	20	7	-2	4432
O=C(CCc1ccccn1)N1CCCC(Nc2ccc(F)cc2)C1 (stereo unspecified)	2	4	-2.3	-4	-3	-31	5449
O=C(NCCO)C(F)(F)C(F)(F)C(F)(F)OC(F)(C(=O)NCCO)C(F)(F)F (stereo unspecified)	4	-8	0.7	1	6	-16	9852

# Bioassay records from PubChem.
